Bioassay records (PubChem BioAssay)
NS1 inh: inhibitors of influenza NS1 protein function | S. cerevisiae slowed by influenza A NS1, growth recovery by OD600 | Potency, µM (series often up to 46.1 µM), for inactives: top-dose activity, positive = more growth | 270,000 compounds, 0.4% hits | AID 2326; also: actives are rising curves; nearly all actives have a fitted effect of over 50% in size
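Growth recovery, yeast-based: influenza A NS1 expressed in S. cerevisiae causes slow growth, and suppressors are detected by OD600. The parent strain without NS1 is used as positive control.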
LASV entry inh: blocks Lassa virus binding to or entry into cells. Lassa virus pseudotype entry inhibition, cell reporter; control for the full effect not named in the record. Potency, µM (titrated, usually from 37.9 µM), without a hit: at the highest dose activity change, negative = inhibition, usual class: inhibitors. 300,000 compounds, 1.2% hits. AID 540256; active means well fitted inhibition curve with a large enough effect; inconclusive means small, poorly fitted or top-dose-only effect, or effect the other way; inactive means flat fitted curve, though single readings scatter; tested in HEK293 cells; also: % is scaled to controls: 0 for no effect and ±100 for the full control effect; nearly all actives have a fitted effect of over 50% in size; luciferase read-out
MARV entry inh: Marburg virus entry inhibition; AID 540276; 300,000 compounds, 1.8% hits; Potency, µM (top dose mostly 37.8 µM), inactives show at the highest dose activity change, negative = inhibition, actives largely listed as inhibitors; Marburg virus pseudotyped entry inhibition, cell reporter; control for the full effect not named in the record; about a third of the inactives were read at about 46 µM; active = well fitted inhibition curve with a large enough effect; inconclusive = small, poorly fitted or top-dose-only effect, or effect the other way; inactive = flat fitted curve, though single readings scatter; tested in HEK293 cells; about a fifth of its hits are not listed in these tables; also: % is scaled to controls: 0 for no effect and ±100 for the full control effect; luciferase read-out
2A StopGo: lowers the luciferase signal of an FMDV 2A StopGo reporter; human cells with a luciferase reporter of 2A StopGo recoding; control for the full effect not named in the record; Potency, µM (top dose mostly 57.9 µM), for the others: top-dose signal change, negative = less light; 410,000 compounds, 1.2% hits; AID 1159524; active = well fitted falling curve with a large enough effect; inconclusive = small, poorly fitted or top-dose-only effect; inactive = no such curve, though single readings can be large or run the other way; tested in HEK293T cells; also: % is scaled to controls: 0 for no effect and ±100 for the full control effect; nearly all actives have a fitted effect of over 45% in size; luciferase light after 4 h
Cruzain Triton: inhibitors of Trypanosoma cruzi cruzain with detergent | Potency, µM, inactives show max response, negative = inhibition, most hits filed as inhibitors | P25779 | AID 1478 | 200,000 compounds, 0.43% hits | purified cruzain, Z-FR-AMC fluorescence, 0.01% Triton; active = well fitted curve in the direction sought with a large enough effect; inconclusive = small, poorly fitted or top-dose-only effect, or another doubt; inactive = no such curve, though single readings can be large; an effect the other way counts as inactive or inconclusive;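 also: plate controls were neutral wells for no effect and buffer without enzyme for full effect; nearly all actives have a fitted effect of over 40% in size; top concentration of the series not given in the record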
Target sequence (P25779 123-467 limits assumed): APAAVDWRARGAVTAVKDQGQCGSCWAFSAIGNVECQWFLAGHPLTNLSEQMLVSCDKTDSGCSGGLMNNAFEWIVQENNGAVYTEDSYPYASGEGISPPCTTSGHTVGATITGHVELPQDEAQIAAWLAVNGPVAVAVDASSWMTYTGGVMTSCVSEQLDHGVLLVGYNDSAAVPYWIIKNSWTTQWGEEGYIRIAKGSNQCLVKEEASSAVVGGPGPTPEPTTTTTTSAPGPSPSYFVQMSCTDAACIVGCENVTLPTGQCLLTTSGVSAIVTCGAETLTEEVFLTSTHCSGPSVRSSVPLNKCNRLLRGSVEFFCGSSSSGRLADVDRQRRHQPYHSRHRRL
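15 min RT preincubation of 1.5 nM cruzain with compound, then 2 uM Z-FR-AMC added; kinetic AMC fluorescence, 60 s delta. Triton X-100 0.01%, pH 5.5.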
SARS PLpro yeast: blocks SARS-CoV papain-like protease in a yeast assay. S. cerevisiae expressing SARS-CoV PLpro, growth rescue; control for the full effect not named in the record. Potency, µM (doses to about 32.9 µM), inactives show top-dose activity, positive = growth rescue. 330,000 compounds, 0.19% hits; also: 0% is about no effect; nearly all actives have a fitted effect of over 55% in size; growth read by luminescence after 48 h
RE007 growth inh: less growth of the S. pombe RE007 Vpr strain | S. pombe RE007 Vpr strain, BacTiter-Glo ATP luminescence, 24 h; control for the full effect not named in the record | AID 651644 | 360,000 compounds, 0.21% hits | Potency, µM (series often up to 92.2 µM), for inactives: top-dose activity change, negative = less growth; active = well fitted falling curve with a large enough effect; inconclusive = small, poorly fitted or top-dose-only effect; inactive = no such curve, though single readings can be large or run the other way;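 also: % is scaled to controls: 0 for no effect and ±100 for the full control effect; nearly all actives have a fitted effect of over 50% in size; the assay follows cell death caused by Vpr and the record does not say whether a fall means rescue or toxicity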
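Fission yeast RE007 carrying one integrated HIV-1 vpr copy, seeded at OD 0.01 in PMG+AL medium with 23 nL pinned compound. Grown 24 h at 30 degrees; viability read by BacTiter-Glo luminescence after 5 min.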
Cruzain noTriton: cruzain (T. cruzi) inhibition without detergent. 200,000 compounds, 2.3% hits. Potency, µM, for inactives: max response, negative = inhibition, actives largely listed as inhibitors. purified cruzain, Z-FR-AMC fluorescence, no detergent. P25779; active = well fitted curve in the direction sought with a large enough effect; inconclusive = small, poorly fitted or top-dose-only effect, or another doubt; inactive = no such curve, though single readings can be large; an effect the other way counts as inactive or inconclusive;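 also: plate controls were enzyme without inhibitor for no effect and buffer without enzyme for full effect; nearly all actives have a fitted effect of over 40% in size; top concentration of the series not given in the record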
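Detergent-free condition (0.00005% Triton X-100) in acetate buffer pH 5.5 with DTT. 1.5 nM enzyme and compound were pre-mixed 15 min, then 2 uM Z-FR-AMC substrate added; reaction progress from fluorescence change between first and third reads (60 s).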
Starred values were filed as active, the others as inactive; ? = inconclusive; · = no result given; & = joins results of further samples; [ ] = remark or other dose. Unless noted, calls follow the shape of the dose curve; as a rule, active means well fitted rising curve with a large enough effect; inconclusive means small, poorly fitted or top-dose-only effect; inactive means no such curve, though single readings can be large or run the other way. Potency is read from the fitted curve at half-maximal effect.

Results follow in this order: NS1 inh | LASV entry inh | MARV entry inh | 2A StopGo | Cruzain Triton | SARS PLpro yeast | RE007 growth inh | Cruzain noTriton
[1] Cc1ccc(C[n+]2cc(-c3ccc(Cl)cc3)n3c2CCC3)cc1
→ -1% | ? | ? | 0% | · | 0% | -24% | ·
[2] Cc1nnc(SCC(=O)Nc2nc(-c3ccc(F)cc3)cs2)[nH]c1=O
→ 1% | -11%[46.1 µM] | ? | 20% | · | -2% | 5% | ·
[3] Cc1cc(NC(=O)CSc2nc3ccsc3c(=O)n2NC(=O)c2ccccc2)no1
→ -19% | -4% | ? | 0% | -3.0% | ? | -14% | -11%
[4] O=c1cc(-c2ccc(O)cc2)oc2cc(O)cc(O)c12
→ -3% | ? | ? | 30%&-13%&55%&-10%[activator] | -2.8%&-5.8%&-11%&-8.4%&-0.5%&-6.6% | · | -3% | ?
[5] CCc1ccc(C(=O)COC(=O)c2ccc(Cl)nc2)cc1
→ · | -2%[46.1 µM] | 1%[46.1 µM] | -5% | · | -1% | 1% | ·
[6] CC1CCCCN1S(=O)(=O)c1ccc2c(c1)CCN2C(=O)C1CCC1 (stereo not given)
→ -41% | -15% | -3% | -17% | -1.5% | 0% | 7% | 3%
[7] CCOC(=O)C1(C)C=C(Nc2ccc(C)cc2)C(=O)N1c1ccc(C)cc1 (stereo not given)
→ · | -2% | 13%[14.2 µM] | ? | · | 1% | 5% | ·
[8] Cc1ccccc1C(=O)NNC(=O)CN1C(=O)c2ccccc2C1=O
→ 2% | 2% | 5%[46.1 µM] | -1% | 1.5% | 1% | 3% | -9%
[9] COc1cc(CC(NC(C)=O)C(=O)NC2CCN(C(=O)c3ccc(C)cc3)CC2)cc(OC)c1 (stereo not given)
→ 2% | 6% | 0% | -14% | · | 3% | 3% | ·
[10] CCc1nnc(NC(=O)CCC(=O)Nc2ccc(Cl)cc2)s1
→ 12% | 23%[46.1 µM] | -13%[46.1 µM] | -14% | · | 3% | 2% | ·
[11] O=S(=O)(Nc1ccccc1)c1ccc(Oc2ncc(C(F)(F)F)cc2Cl)cc1
→ -11% | -7% | -29% | -24% | -16% | -23% | ? | 1%
[12] C/C(=N/NC(=O)C1CC1(c1ccccc1)c1ccccc1)c1ccco1 (stereo not given)
→ 6% | -13% | ? | -14% | -5.5% | -38% | -2% | 16%
[13] CCCOP(=O)(c1ccccc1)c1ccccc1
→ -1% | -16% | ? | -8% | 4.2% | -13% | 3% | 5%
[14] Cc1cc(NC(=O)C(Cl)c2ccccc2)no1 (stereo not given)
→ -26% | ? | ? | ? | · | 0% | 9% | ·
[15] O=C(NCCS(=O)(=O)N1CCN(c2ccc(F)cc2)CC1)c1ccco1
→ · | 3% | 18%[46.1 µM] | -22% | · | -4% | 7% | ·

Individual results from the entries so far:
Cc1cc(NC(=O)CSc2nc3ccsc3c(=O)n2NC(=O)c2ccccc2)no1 in LASV entry inh is entered as -4%
CCc1nnc(NC(=O)CCC(=O)Nc2ccc(Cl)cc2)s1 in MARV entry inh is entered as -13%[46.1 µM]

Compound profiles (already shown).
Cc1cc(NC(=O)CSc2nc3ccsc3c(=O)n2NC(=O)c2ccccc2)no1 as listed: NS1 inh: -19%; LASV entry inh: -4%; MARV entry inh: ?; 2A StopGo: 0%; Cruzain Triton: -3.0%; SARS PLpro yeast: ?; RE007 growth inh: -14%; Cruzain noTriton: -11%
CCOC(=O)C1(C)C=C(Nc2ccc(C)cc2)C(=O)N1c1ccc(C)cc1 (stereo not given) as listed: NS1 inh: ·; LASV entry inh: -2%; MARV entry inh: 13%[14.2 µM]; 2A StopGo: ?; Cruzain Triton: ·; SARS PLpro yeast: 1%; RE007 growth inh: 5%; Cruzain noTriton: ·
C/C(=N/NC(=O)C1CC1(c1ccccc1)c1ccccc1)c1ccco1 (stereo not given) as listed: NS1 inh: 6%; LASV entry inh: -13%; MARV entry inh: ?; 2A StopGo: -14%; Cruzain Triton: -5.5%; SARS PLpro yeast: -38%; RE007 growth inh: -2%; Cruzain noTriton: 16%

Other structures:
Results follow in this order: NS1 inh | LASV entry inh | MARV entry inh | 2A StopGo | Cruzain Triton | SARS PLpro yeast | RE007 growth inh | Cruzain noTriton
[16] COc1ccc(OC)c(NC(=O)c2nc(S(=O)(=O)Cc3ccccc3)ncc2Cl)c1
→ -5% | ? | ? | 7.1µM* | · | -9% | -2% | ·
[17] COc1ccc(C(=O)NC(=S)NNC(=O)c2ccc(NC(=O)C(C)C)cc2)cc1
→ -18% | ? | ? | -3% | 0.0% | -7% | -17% | 15%
[18] CCCn1nnc(NC(=O)c2ccco2)n1
→ 9% | 18% | ? | · | 6.1% | -1% | -12% | -12%
[19] Nc1c(C(=O)Nc2ccccc2)c2nc3ccccc3nc2n1-c1ccc(O)cc1
→ -1% | · | · | -18% | · | -2% | -6% | ·
[20] COc1ccc(-c2[nH]ncc2CNCC(C)(C)N2CCOCC2)cc1F
→ -7% | -11% | ? | -12% | · | 0% | 10% | ·
[21] O=C(Nc1ccccc1Br)C1CCN(S(=O)(=O)c2cccs2)CC1
→ · | 3% | ? | -28% | · | 0% | 18% | ·
[22] CCOc1ccc(-c2cc(C)n3nc(C(=O)Nc4ccc(C)c(C)c4)cc3n2)cc1
→ · | 29%[46.1 µM] | -13%[46.1 µM] | ? | -4.3% | · | · | -5%
[23] Cc1cc(C)n(CCSCC(=O)O)n1
→ 2% | -4% | 4% | · | 1.0% | 0% | 1% | 6%
[24] CCN(CC)S(=O)(=O)c1cc(C(=O)N=c2sccn2C)ccc1OC
→ -13% | 15% | -2% | 1% | · | -8% | -4% | ·
[25] Cc1cccc(-c2nc(S(=O)(=O)c3ccc(F)cc3)c(N3CCN(c4ccccc4)CC3)o2)c1
→ · | ? | 0%[46.1 µM] | -11% | 0.4% | · | · | -22%
[26] CC(C)(C)c1ccc(S(=O)(=O)N2CCSC2)cc1
→ -18% | -2% | 11% | -24% | -4.6% | 3% | 4% | -11%
[27] COc1ccccc1C(=O)Nc1nnc(SCC(=O)Nc2ccc3c(c2)oc2ccccc23)s1
→ 16% | ? | ? | 50%[activator] | 1.6% | -3% | -16% | 13µM*
[28] C=C(C(=O)O)C(CCCCCC)C(=O)O (stereo not given)
→ 6% | · | · | -14% | · | 2% | 1% | ·
[29] O=C(NCc1nnc(SCc2ccccc2)n1-c1ccc(F)cc1)C12CC3CC(CC(C3)C1)C2
→ -8% | -25% | ? | 25µM* | -5.4% | 7% | -14% | 2%
[30] CC(=O)c1ccc(OCC(=O)NC(=O)NC2CCCCC2)cc1
→ -19% | -10%[46.1 µM] | -30%[46.1 µM] | ? | · | 12% | -13% | ·

31: COc1ccc(C(C)=O)cc1CSc1nc2cc(C(=O)O)ccc2c(=O)n1Cc1ccccc1
32: CCC(NC(=O)Nc1ccc(O)cc1)(C(F)(F)F)C(F)(F)F
33: Cc1cc(=O)oc2cc(OCC(=O)N3CCc4ccccc4C3)ccc12
34: CC(=O)c1ccc2c(c1)C1C(Cl)C(Sc3ccccc3[N+](=O)[O-])CC1C(c1ccccc1[N+](=O)[O-])N2 (stereo not given)
35: Cc1ccc(Cl)cc1-n1ncc2c(N3CCC(C)CC3)ncnc21
36: CCC(C)[C@H](NC(=O)CCn1nnc2ccccc2c1=O)C(=O)O (stereo not given in full)
37: Cc1ccccc1-n1ncc2c1CC(C)(C)CC2NC(=O)CN1CCCC1=O (stereo not given)
38: CC(C)NC(=O)C1CCN(c2ccc(S(=O)(=O)N3CCOCC3)cc2Cl)CC1

compound no. | 31 | 32 | 33 | 34 | 35 | 36 | 37 | 38
NS1 inh | ? | 4% | -11% | 2µM* | · | 0% | 4% | -6%
LASV entry inh | 2% | -21% | -5% | ? | 0%[46.1 µM] | -6% | 1% | -4%
MARV entry inh | ? | ? | -7%&-7% | ? | · | 15% | 6% | 1%[46.1 µM]
2A StopGo | -20% | -24% | -5% | -25% | ? | -6% | -15% | -27%
Cruzain Triton | -19% | -0.1% | -6.2% | -11% | -0.1% | -0.8% | · | ·
SARS PLpro yeast | 15% | 0% | -2% | 20% | · | 18% | 26% | -1%
RE007 growth inh | 15% | 1% | -4% | 2% | · | 5% | 2% | 7%
Cruzain noTriton | 22% | -3% | -4% | 3.2µM* | 11% | -2% | · | ·

39: CCN(CC)N=Nc1ccc(S(N)(=O)=O)cc1
40: COc1ccc(-n2c(C)c(C)c3c(NCCCN(C)C)ncnc32)cc1
41: O=C(/C=C/Nc1ccccc1C(F)(F)F)c1ccco1
42: O=C(c1ccc(OC2CCN(CCc3ccccc3)CC2)cc1)N1CCC(CO)CC1
43: O=P(O)(O)C12CC3CC(CC(C3)C1)C2
44: CCCCn1c(N)c(N(CCC(C)C)C(=O)CC2CCCC2)c(=O)[nH]c1=O
45: COc1ccc(CSc2nnc(-c3ccncc3)n2N)cc1
46: Cc1c(CCO)c(=O)n2n1CCCC2
47: CN(C1CCCC1)C1CCN(C(=S)Nc2cc(F)cc(F)c2)CC1

compound no. | 39 | 40 | 41 | 42 | 43 | 44 | 45 | 46 | 47
NS1 inh | 0% | 0% | -35% | 8% | 1% | · | 3% | · | ·
LASV entry inh | -1%[46.1 µM] | 12%[46.1 µM] | ? | · | 7% | ? | 2% | 19% | 3%
MARV entry inh | 2%[46.1 µM] | ? | ? | · | 0% | 2% | 2%[46.1 µM] | 10% | -9%[46.1 µM]
2A StopGo | 8% | -14% | 2% | 13% | 8% | 0% | -1% | -9% | -10%
Cruzain Triton | · | · | · | · | 2.6% | · | · | · | ·
SARS PLpro yeast | 1% | 1% | -2% | 5% | 0% | -2% | 2% | · | -4%
RE007 growth inh | -1% | -3% | -20% | -13% | 16% | -3% | 2% | -7% | -2%
Cruzain noTriton | · | · | · | · | 3% | · | · | · | ·
